# Assay outcomes (PubChem)
# Ecoli rRNA inh = reduced GFP signal of wild-type E. coli, primary screen, bacterial rRNA inhibitor project, GFP/RFP fluorescence, OD600, single point | GFP signal change (wild-type ribosome), % (test concentration not listed) | actives 1.6% (n = 350,000) | E. coli WT GFP vs humanized-ribosome RFP mutants, 24 h; hits give low values; DMSO median 0, no signal -100;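 active = significant combined selectivity score with lowered wild-type GFP, culture density cut under 30%, mutant RFP and density less affected; inactive = any of these conditions unmet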; note: one replicate is shown; some compounds called inactive have numbers as strong as hits
# FGF22 binding = binders of human FGF22 protein, primary screen, FGF22 synaptogenesis inhibitor project, biophysical, thermal shift, single point. Fibroblast growth factor 22 (Homo sapiens), Q9HCT0. recombinant FGF22 thermal shift, SYPRO orange fluorescence; percent of sucrose octasulfate shift, DMSO zero. calls only at 9.99 µM. actives 1.5% (n = 340,000);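 active = melting point raised past a set limit in the mean and every replicate; three in four hits are not shown here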
# Target sequence (Q9HCT0 whole entry, looked up): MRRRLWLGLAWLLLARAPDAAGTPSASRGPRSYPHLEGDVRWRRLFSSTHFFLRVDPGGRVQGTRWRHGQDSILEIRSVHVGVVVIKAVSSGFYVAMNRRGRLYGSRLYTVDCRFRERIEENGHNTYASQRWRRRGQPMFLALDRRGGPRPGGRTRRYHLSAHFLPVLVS
# AF4-AF9 inh = inhibitors of AF4 peptide binding to AF9, primary screen, biochemical, AlphaScreen, biotin-AF4 peptide, FLAG-AF9, single point | inhibition, % at 10 µM | actives 0.47% (n = 350,000) | Protein AF-9 (Homo sapiens), P42568 | AID 651704, 2012;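 active = every replicate reaching a set inhibition limit, whatever the replicate mean, cut at about 25% in these data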;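 note: 0% = plate neutral control median and 100% = total signal loss; the record names both 10 and 1 µM as test concentration; the first replicate is given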
# Target sequence (P42568 whole entry, looked up): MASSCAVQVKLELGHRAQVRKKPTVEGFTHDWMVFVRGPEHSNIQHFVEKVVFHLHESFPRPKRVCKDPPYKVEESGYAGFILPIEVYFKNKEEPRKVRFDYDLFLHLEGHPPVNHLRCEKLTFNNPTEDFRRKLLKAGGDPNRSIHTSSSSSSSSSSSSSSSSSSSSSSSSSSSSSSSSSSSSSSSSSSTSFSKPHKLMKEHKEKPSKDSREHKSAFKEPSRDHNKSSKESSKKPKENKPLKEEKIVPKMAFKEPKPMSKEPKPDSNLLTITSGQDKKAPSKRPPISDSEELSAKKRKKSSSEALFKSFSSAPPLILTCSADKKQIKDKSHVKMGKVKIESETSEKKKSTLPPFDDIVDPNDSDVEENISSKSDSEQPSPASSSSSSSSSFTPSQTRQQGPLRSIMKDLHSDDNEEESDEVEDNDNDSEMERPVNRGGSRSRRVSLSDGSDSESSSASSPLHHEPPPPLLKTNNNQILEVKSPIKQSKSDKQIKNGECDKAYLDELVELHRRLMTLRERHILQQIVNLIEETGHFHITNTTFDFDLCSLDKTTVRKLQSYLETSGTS
# Ecoli rRNA inh OD600 = second read-out of Ecoli rRNA inh, no call of its own (marks repeat the call); OD600 change, %; measured here: OD600 growth;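 optical density of the mix in the first replicate; 0 = DMSO median and -100 = no signal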
# Ecoli rRNA inh RFP = also measured in Ecoli rRNA inh; calls as there; RFP signal change, %; measured here: RFP humanized mutant strains;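 first replicate; 0 = DMSO median and -100 = no signal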
# An asterisk follows results filed as active; i = inactive; . = no result given; + = active, no number; & = joins results of further samples.
cpd	Molecule	Ecoli rRNA inh	Ecoli rRNA inh OD600	Ecoli rRNA inh RFP	FGF22 binding	AF4-AF9 inh
1	C[C@H]1CN([C@@H](C)CO)C(=O)c2cccc(NS(=O)(=O)c3ccccc3)c2O[C@H]1CN(C)Cc1ccc(C(=O)Nc2ccccc2N)cc1	0	1	-4.2	i	1.1
2	O=C(N[C@@H]1CC[C@H](CCNC(=O)C2CCOCC2)O[C@@H]1CO)c1ccccn1	5	5	-1.2	i	-2.3
3	CCCC(=O)Nc1ccc2c(c1)OC[C@@H](C)N(Cc1cncnc1)C[C@H](C)[C@H](OC)CN(C)C2=O	0	2	-1.4	i	-2.1
4	O=C1Cc2c(-c3ccccc3)cc(-c3cccc(Cl)c3)nc2-c2ccccc2N1	8	19	0.0	i	-4.0
5	COc1ccccc1NC(=O)N[C@H]1CC[C@@H](CCNC(=O)Cc2ccccn2)O[C@H]1CO	-1	1	2.7	i	0.3
6	CCCN(C)C[C@@H]1Oc2cc(C#CC3CCCC3)ccc2S(=O)(=O)N([C@@H](C)CO)C[C@@H]1C	10	9	1.4	i	7.9
7	O=C(Cn1sc2ccccc2c1=O)Nc1ccc(Br)cc1	-18	-22	0.5	i	-8.2
8	O=C(C[C@@H]1CC[C@@H]2[C@H](COC[C@H](O)CN2Cc2ccc(Oc3ccccc3)cc2)O1)Nc1nccs1	-4	-46	6.2	i	3.2
9	O=C(C[C@H]1C[C@@H]2c3cc(NC(=O)Nc4ccc(C(F)(F)F)cc4)ccc3O[C@@H]2[C@H](CO)O1)NCC1CC1	-3	-1	-3.7	i	-0.8
10	O=S1(=O)c2c(cccc2N2CCCC2)O[C@H](COCc2ccccc2)CN1C1CC1	-3	-12	5.6	i	7.6
11	Cc1noc(C)c1COc1ccc(C(=O)N2CCN(c3cccc(Cl)c3)CC2)cc1	0	-20	3.4	i	-19
12	COCC#Cc1ccc([C@H]2[C@@H](CO)N3C(=O)CN(C(=O)C4CCCCC4)C[C@@H]23)cc1	2	15	-1.1	i	-1.5
13	Cc1ccc(C(=O)N2CCC[C@@H]2C(=O)N2CCC[C@H]2C(=O)NCc2ccccc2)cc1	12	6	-2.0	i	0.2
14	Cc1cccc(C)c1-n1nnnc1C1c2ccccc2C(=O)N1CCCN1CCOCC1 (stereo not given)	18	12	0.8	i	-2.7
15	Cc1ccc(S(=O)(=O)N(C)C[C@@H]2Oc3c(NC(=O)c4ccncc4)cccc3C(=O)N([C@H](C)CO)C[C@@H]2C)cc1	-7	-2	-0.4	i	-4.3
16	CCN(CC(=O)Nc1ccc(NC(C)=O)cc1)C(=O)c1ccc(N2CCCC2)c([N+](=O)[O-])c1	-3	4	1.6	i	0.4
17	CNC[C@H]1OCCCC[C@H](C)Oc2ccc(NC(=O)c3ccccc3)cc2C(=O)N([C@H](C)CO)C[C@@H]1C	3	2	-2.2	i	1.6
18	CN1CCN(C(=O)C[C@@H]2CC[C@@H]3[C@H](COC[C@@H](O)CN3CC3CCCCC3)O2)CC1	2	7	1.6	i	-1.4
19	CCN1C[C@@H]2[C@@H]3C(=O)N(Cc4ccccc4)C(=O)[C@@H]3[C@](CC)(C(=O)OC)N2C1=NCc1ccccc1	19	15	3.5	i	-4.6
20	O=C(NCc1ccc(F)cc1F)[C@@H]1CCCN1C(=O)[C@@H]1CCCN1C(=O)c1ccccc1	5	12	-5.8	i	-2.2
21	C[C@@H]1CCCCO[C@H](CN(C)C(=O)Nc2ccc(F)cc2)[C@H](C)CN([C@@H](C)CO)C(=O)c2cc(NC(=O)c3ccncc3)ccc2O1	-3	-6	1.3	i	-0.8
22	O=C(C[C@@H]1CC[C@@H](NC(=O)c2ccccn2)[C@H](CO)O1)NCc1cccc(F)c1	5	8	-1.8	i	1.3
23	O=C(C[C@@H]1CC[C@@H](NC(=O)c2ccc(F)cc2)[C@@H](CO)O1)NCCc1ccncc1	5	18	1.5	i	-1.6
24	COc1ccccc1-c1cnc2c(c1)C(=O)N([C@H](C)CO)C[C@@H](C)[C@@H](CN(C)Cc1ccccc1)O2	-2	-1	-0.1	i	-3.5
25	Oc1c(C(c2ccccc2)N2CCOCC2)ccc2ccccc12 (stereo not given)	-12	-2	4.3	i	0.7
26	C[C@@H]1CN([C@H](C)CO)C(=O)c2cc(C#Cc3cccnc3)cnc2O[C@H]1CN(C)C	3	0	-2.1	i	-6.9
27	C(=Cc1c[nH]c2ccccc12)c1ccc2ccccc2n1	-14	16	35	i	-1.0
28	O=C(c1ccc2c(c1)OCO2)N1CC(=O)N2[C@H](CO)[C@@H](c3ccc(C#CCC4CCCC4)cc3)[C@@H]2C1	3	3	-2.0	i	2.7
29	Cc1ccc(NC(=O)CC2Oc3ccc(C)cc3NC2=O)cc1 (stereo not given)	11	9	0.2	i	2.6
30	C[C@H](CO)N1C[C@H](C)[C@@H](CN(C)CC2CCCCC2)Oc2ccc(NC(=O)CCCCCC(=O)Nc3ccccc3N)cc2C1=O	-3	-3	0.8	i	3.2

# Grouped by structure: the compounds so far containing an aryl methoxy group.
cpd	Molecule	Ecoli rRNA inh	Ecoli rRNA inh OD600	Ecoli rRNA inh RFP	FGF22 binding	AF4-AF9 inh
5	COc1ccccc1NC(=O)N[C@H]1CC[C@@H](CCNC(=O)Cc2ccccn2)O[C@H]1CO	-1	1	2.7	i	0.3
24	COc1ccccc1-c1cnc2c(c1)C(=O)N([C@H](C)CO)C[C@@H](C)[C@@H](CN(C)Cc1ccccc1)O2	-2	-1	-0.1	i	-3.5

# (next part)
cpd	Molecule	Ecoli rRNA inh	Ecoli rRNA inh OD600	Ecoli rRNA inh RFP	FGF22 binding	AF4-AF9 inh
31	Cn1c(=O)c2cc(NC(=S)NCc3ccccc3F)ccc2n1Cc1cccc(C(F)(F)F)c1	-3	-19	-0.2	+	-0.6
32	C[C@@H]1CN([C@@H](C)CO)C(=O)c2cccc(NC(=O)Nc3ccc4c(c3)OCO4)c2O[C@@H]1CN(C)Cc1ccccc1	1	2	-1.9	i	6.0
33	CCNC(=O)C[C@H]1CC[C@H]2[C@@H](COC[C@@H](O)CN2C(=O)C2CC2)O1	-1	2	3.3	i	-1.5
34	COc1ccc(C2=Nc3ccccc3N(C(=O)c3ccc(C(F)(F)F)cc3)C2C(=O)NCc2ccccc2)cc1 (stereo not given)	7	17	3.1	i	-1.3
35	Cc1cc2c(c(C)c1Cl)C(c1ccc3c(c1)OCO3)CC(=O)O2 (stereo not given)	3	-40	-4.9	.	-0.7
36	CCC(=O)N(C)C[C@@H]1Oc2cc(-c3ccccc3C)ccc2S(=O)(=O)N([C@H](C)CO)C[C@@H]1C	5	1	1.1	i	-0.8
37	CCC(=O)N1[C@H](C(=O)Nc2ccccc2)[C@@H](CO)[C@@H]2Cn3c(ccc(C4=CCCC4)c3=O)[C@@H]21	3	-4	-0.1	i	-1.0
38	Cc1ccc(S(=O)(=O)Nc2cccc3c2O[C@@H](CN(C)Cc2ccc(Oc4ccccc4)cc2)[C@H](C)CN([C@@H](C)CO)C3=O)cc1	2	3	2.0	i	-0.6
39	COc1cc(CCN(C(C)=O)C2C(=O)Nc3ccccc3N=C2c2ccc3c(c2)OCO3)cc(OC)c1 (stereo not given)	-6	-7	-3.7	i	3.4
40	CCC(=O)Nc1ccc2c(c1)C(=O)N(C)[C@H]1CC[C@H](CC(=O)NCC3CCCCC3)O[C@@H]1CO2	2	5	-1.5	i	-2.4
41	CCc1nc2c(OCc3ccccc3C(=O)OC)cccn2c1N(C)C(=O)c1cccc(OC)c1	-3	0	3.4	i	3.4
42	CCCNC(=O)N1[C@H](CO)[C@H](c2ccccc2)C12CN(C(=O)CC1CC1)C2	2	8	2.7	i	-0.2
43	C[C@H](CO)N1C[C@H](C)[C@@H](CN(C)C(=O)Nc2ccc(F)cc2)Oc2ccc(NC(=O)Nc3ccc(F)cc3)cc2CC1=O	-2	-3	-2.8	i	1.5
44	Cc1noc(C)c1NC(=O)Nc1cccc2c1O[C@H](CN(C)Cc1ccc(C(=O)O)cc1)[C@H](C)CN([C@H](C)CO)C2=O	1	-1	-0.4	i	-1.8
45	C=CCN1C(=O)c2n[nH]c(C)c2C1c1ccc(C)cc1 (stereo not given)	8	8	3.7	.	-8.9
46	CO[C@@H]1CN(C)C(=O)c2ccc(NC(=O)C3CC3)cc2OC[C@H](C)N(C(=O)c2ccncc2)C[C@H]1C	3	-1	-0.6	i	0.5
47	N#Cc1ccccc1OCCCN1CCC(C(O)(c2ccccc2)c2ccccc2)CC1	-55	-83	-18	i	9.2
48	COc1ccc(S(=O)(=O)N(C)C[C@@H]2OCCCC[C@H](C)Oc3ccc(NS(=O)(=O)c4ccccc4)cc3C(=O)N([C@H](C)CO)C[C@@H]2C)cc1	-2	4	-0.5	i	0.7
49	C[C@H]1CN([C@@H](C)CO)C(=O)Cc2cc(NC(=O)Nc3ccc(C(F)(F)F)cc3)ccc2O[C@H]1CN(C)C(=O)Nc1ccc(F)cc1	-1	-13	0.0	i	2.1
50	COc1ccccc1NC(=O)N[C@@H]1CC[C@H](CCn2cc(C3(O)CCCC3)nn2)O[C@@H]1CO	2	3	-0.3	i	-0.4
51	CCN(CC)C(=O)C1=C(C)N(CCCN2CCCC2=O)C(=O)C(CC(=O)NC2CCCC2)C1 (stereo not given)	6	15	9.7	i	-1.3
52	C[C@@H]1CN([C@H](C)CO)C(=O)c2cc(NC(=O)Nc3ccc(F)cc3)ccc2O[C@@H](C)CCCCO[C@H]1CN(C)S(=O)(=O)c1ccc(Cl)cc1	0&16	3&6	-2.2&0.9	i	-1.2&-6.7
53	COc1ccc(CN(C)C[C@H]2OCCCC[C@H](C)Oc3ccc(NC(=O)Nc4ccc(C(F)(F)F)cc4)cc3C(=O)N([C@H](C)CO)C[C@H]2C)cc1	6	15	-1.2	i	5.0
54	C[C@@H]1CN([C@H](C)CO)C(=O)c2ccccc2-c2ccccc2CO[C@H]1CN(C)S(=O)(=O)c1ccc([N+](=O)[O-])cc1	0	2	1.1	i	3.6
55	C[C@H]1CN([C@@H](C)CO)C(=O)c2c(c3ccccc3n2C)-c2ccccc2CO[C@@H]1CN(C)C(=O)[C@H]1CCCN1C	2	-22	12	i	6.1
56	CO[C@@H]1CN(C)C(=O)c2cc(NC(=O)Nc3ccc(F)cc3)ccc2OC[C@H](C)NC[C@@H]1C	-2	-2	0.0	i	-8.2
57	C/C=C/c1ccc([C@@H]2[C@@H](CO)N(C(C)=O)[C@@H]2CNC(=O)c2ccccc2)cc1	-6	-3	0.5	i	2.8
58	COc1cc(OC)cc(C2=Cc3ccccc3C(CC(C)=O)N2c2ccc(-c3cccs3)cc2)c1 (stereo not given)	-28	-48	1.7	i	-3.1
59	O=C(c1ccc(NS(=O)(=O)c2ccc(Cl)c(Cl)c2)cc1)N1CCOCC1	-4	-4	-1.1	i	5.1
60	CN(C)CCCNC(=O)C[C@@H]1CC[C@H]2[C@@H](COC[C@@H](O)CN2CC2CCCC2)O1	-3	-2	1.3	i	-3.1
61	COc1ccc(CN2C[C@@H](CO)O[C@@H](n3cnc4c(NCCCO)ncnc43)C2)cc1	18	17	4.2	i	-2.3
62	COc1ccc2c3c([nH]c2c1)[C@H](CO)N(Cc1ccccc1)CC31CCN(C(=O)Nc2cccc(F)c2)CC1	-1	-3	14	i	-1.6
63	COCC(=O)N1[C@H](CO)[C@H](c2ccc(-c3cccc(F)c3)cc2)[C@@H]1C#N	1	1	1.2	i	-0.3
64	O=C1c2ccccc2[C@@H]2C[C@@H](O)[C@H](Nc3ccccc3)CCN12	6	10	-1.5	i	-6.3
65	C[C@@H]1CCCCO[C@H](CN(C)C(=O)NC2CCCCC2)[C@@H](C)CN([C@H](C)CO)C(=O)c2cc(NC(=O)NC3CCCCC3)ccc2O1	0	2	-1.3	i	0.3
66	C[C@@H]1CCCCO[C@@H](CN(C)Cc2ccc(Cl)c(Cl)c2)[C@@H](C)CN([C@H](C)CO)C(=O)c2cc(NC(=O)CCC(F)(F)F)ccc2O1	-2&3	-3&4	-2.4&3.7	i	3.1&-4.7
67	C[C@@H]1CCCCO[C@@H](CN(C)S(=O)(=O)c2ccc(F)cc2)[C@@H](C)CN([C@H](C)CO)C(=O)c2cc(N(C)C)ccc2O1	6&2	30&-4	0.1&-0.4	i	8.3&-0.5&8.2
68	CN(C)C(=O)[C@@H]1[C@@H](CO)[C@@H]2Cn3c(ccc(C4=CCCCC4)c3=O)[C@@H]2N1Cc1ccc2c(c1)OCO2	-7	-4	-0.8	i	-2.7

# Complete entries, quoted from the list. Order of values: Ecoli rRNA inh, Ecoli rRNA inh OD600, Ecoli rRNA inh RFP, FGF22 binding, AF4-AF9 inh
# CCC(=O)N1[C@H](C(=O)Nc2ccccc2)[C@@H](CO)[C@@H]2Cn3c(ccc(C4=CCCC4)c3=O)[C@@H]21 across the screens: 3, -4, -0.1, i, -1.0
# COc1ccccc1-c1cnc2c(c1)C(=O)N([C@H](C)CO)C[C@@H](C)[C@@H](CN(C)Cc1ccccc1)O2 across the screens: -2, -1, -0.1, i, -3.5

# This is a subset; count on the stated rates, not on these rows.
